Vif A3G – inhibitors of Vif binding to APOBEC3G peptide, primary screen, biochemical, TR-FRET, GST-Vif 1-94, biotin-A3G peptide, dose response retest (AID 1117319); Virion infectivity factor (Human immunodeficiency virus type 1 group M subtype B (isolate …; TR-FRET GST-Vif / biotin-A3G peptide binding; higher % means a stronger effect; test concentration not given here; strong numbers were not always called active; actives 0.57% (n = 260,000); one-dose inhibition, %; IC50 in µM for titrated hits;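 active = above the screen mean plus three standard deviations and confirmed in dose response; inconclusive = results disagree or hit not tested in dose response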;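 note: Vif residues 1-94 fused to GST binding biotinylated APOBEC3G peptide 110-148; 0% = full assay without inhibitor and 100% = GST in place of GST-Vif; retest series ran down from 100 µM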
Bfl-1 A1 inh – caspase 3/7 activation in MEF A1-2A-BIM cells, primary screen, A1 inhibitor project, cell-based, luminescence, HTS; Caspase-Glo 3/7 luminescence, 3 h; percent of clofoctol response, vehicle zero; caspase activation, % (no concentration beside the values); actives 0.066% (n = 330,000); AID 2462, 2010;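 active = over half of replicate activation scores above 10%, or exactly half above 10 with the replicate mean above 10; inconclusive = replicate mean below 10 yet half the replicates above 10; inactive = over half of replicates below 10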;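 note: wells of about 30 µL received 50 nL stock; many hits fall short of the cut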
Ecoli growth – E. coli growth inhibition, primary screen, OD600; actives 0.21% (n = 330,000); OD600 absorbance (test concentration not listed); Escherichia coli growth, 23 h; active compounds read low;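 active = OD600 absorbance below the run mean of sample wells minus 3.6 SD, in any replicate, cut at about 0.56 in these data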;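 note: stock transfer was 300 nL into about 60 µL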
HNF4A DNA FP – change in binding of human HNF4A to DNA, primary screen, biochemical, fluorescence polarization, FITC-DNA | Hepatocyte nuclear factor 4-alpha (Homo sapiens), P41235 | 1 h | activity change, % at 10 µM | actives 0.3% (n = 360,000); in the data active = activity change above about 30%, passing the limit was not always enough;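 note: controls were the assay level and a saturating level of protein; the project sought stronger binding though the title names inhibitors; some compounds called inactive have numbers as strong as hits; positive values seem to mean higher polarization but the record does not say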
Target sequence (P41235 whole entry, looked up): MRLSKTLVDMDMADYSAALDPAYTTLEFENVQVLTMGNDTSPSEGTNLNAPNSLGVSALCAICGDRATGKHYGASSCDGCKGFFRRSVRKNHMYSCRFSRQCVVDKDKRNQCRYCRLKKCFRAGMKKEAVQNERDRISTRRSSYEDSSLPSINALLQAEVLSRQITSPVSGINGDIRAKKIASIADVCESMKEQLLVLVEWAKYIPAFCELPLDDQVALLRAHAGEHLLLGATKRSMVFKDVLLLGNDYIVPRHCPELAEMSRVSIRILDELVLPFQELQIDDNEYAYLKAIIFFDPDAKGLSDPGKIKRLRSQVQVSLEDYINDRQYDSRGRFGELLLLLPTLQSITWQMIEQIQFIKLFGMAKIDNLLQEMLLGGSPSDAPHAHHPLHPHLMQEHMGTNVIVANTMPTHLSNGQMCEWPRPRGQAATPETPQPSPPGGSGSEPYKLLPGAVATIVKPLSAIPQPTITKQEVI
B2AR ag – beta2AR agonists driving receptor internalization, primary screen, cell-based, FAP fluorogen, flow cytometry | Beta-2 adrenergic receptor (Homo sapiens), P07550 | response, % (test concentration not listed) | Am2.2-beta2AR cells; reference of the scale not given here | actives 0.43% (n = 340,000);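 active = response above a set limit, near 3 SD of response in nonfluorescent compounds, cut at about 42% in these data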;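 note: stock transfer was 100 nL into about 11 µL; a reference agonist was the positive control; negative values mostly stem from fluorescent compounds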
Target sequence (P07550 whole entry, looked up): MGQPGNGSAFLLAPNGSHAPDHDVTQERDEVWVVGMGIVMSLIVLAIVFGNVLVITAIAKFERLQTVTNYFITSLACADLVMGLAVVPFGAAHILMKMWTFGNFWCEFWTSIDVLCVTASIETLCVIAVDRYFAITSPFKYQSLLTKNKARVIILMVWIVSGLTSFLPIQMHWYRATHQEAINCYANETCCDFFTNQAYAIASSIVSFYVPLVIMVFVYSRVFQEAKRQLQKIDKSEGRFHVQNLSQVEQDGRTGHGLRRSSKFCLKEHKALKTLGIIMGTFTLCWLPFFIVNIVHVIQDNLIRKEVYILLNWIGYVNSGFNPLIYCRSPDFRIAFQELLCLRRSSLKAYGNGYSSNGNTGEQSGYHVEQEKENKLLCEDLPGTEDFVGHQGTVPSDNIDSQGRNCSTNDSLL
LANA-H2B inh – blockers of LANA interaction with H2A/H2B – biochemical, FP readout, HTS, primary screen; cell-free LANA-H2A/H2B peptide, fluorescence polarization; inhibition, % (no concentration beside the values); actives 0.6% (n = 320,000); AID 2629, 2010; in the data active = inhibition mostly above about 10%, no sharp cut-off; inactive = mostly below about 6.7%;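 note: stock transfer was 7.5 nL into about 10 µL; 0% = median of vehicle wells and 100% = median of positive control wells; one replicate is shown; the record names a cut of 25% in any replicate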
UCH37 DUB inh – inhibitors of human UCH37 deubiquitinase, primary screen, biochemical, Ub-AMC cleavage, fluorescence | Ubiquitin carboxyl-terminal hydrolase isozyme L5 (Homo sapiens), Q9Y5K5 | purified proteasome/UCH37 | inhibition, % (concentration not given with the values) | actives 0.33% (n = 330,000) | AID 588478, 2011;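 active = mean of two replicates above 20%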;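 note: 0% = compound-free wells with enzyme and 100% = wells lacking proteasome; stock transfer was 100 nL into about 20 µL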
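Test system – human UCH37 enzyme supplied as purified proteasome complex · Incubation – 30 min preincubation with enzyme, 25 min cleavage at room temperature · Detection – AMC fluorescence from Ub-AMC cleavage, excitation 355 nm, emission 460 nm · Benchmarks – no-proteasome wells (full inhibition) and compound-free wells (no inhibition)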
* hit, by the source's call; i = inactive; u = inconclusive; x = no result given; & = joins results of further samples. The order is random; 2.1% or so of the library scored in one or more.

SMILES	Vif A3G	Bfl-1 A1 inh	Ecoli growth	HNF4A DNA FP	B2AR ag	LANA-H2B inh	UCH37 DUB inh
Cc1nn(-c2ccccc2)c2sc(C(=O)NNC(=O)COc3ccccc3)cc12	u	0.1	0.72	-0.7	-4	1.6	-2.5
C/C(N)=C(\C#N)C(=O)NCCc1ccccn1	-7%	-0.3	0.72	5.1	0	0.5	-2.3
Nc1ccc2nc[nH]c2c1	11%	0.7	0.62	2.9	21	-5.2	19
COc1ccc(S(=O)(=O)N(C)C[C@H]2Oc3ccc(NC(=O)C4CCCCC4)cc3C(=O)N([C@H](C)CO)C[C@@H]2C)cc1	x	2.3	0.77	-2.9	-12	6.9	0.7
COCCCNC(=O)Cn1c(=O)n(CC(=O)NCCc2ccc(OC)c(OC)c2)c(=O)c2sccc21	x	0.3	0.68	-0.4	-3	0.7	3.9
Cc1cc(C(=O)NNC(=O)Cc2ccc(Cl)cc2)c(C)o1	x	-0.2	0.61	3.0	4	4.0	-2.9
Cc1cc(C)cc(NC(=O)N2CCC(C(=O)c3ccc(F)cc3)CC2)c1	2%	1.0	0.69	-2.5	1	-3.4	4.3
COc1cc(C(=O)Nc2c(C(=O)O)[nH]c3ccc(C)cc23)cc(OC)c1OC	-4%	-0.2	0.68	1.2	29	4.3	4.8
CC(=O)c1ccc(N2CCN(C(=O)C3CCN(S(=O)(=O)c4ccc(F)cc4)CC3)CC2)cc1	-13%	1.0	0.7	-4.6	0	x	5.2
O=C(c1ccc(Cl)c([N+](=O)[O-])c1)N(Cc1ccc(F)cc1)C1CCS(=O)(=O)C1 (stereo unspecified)	4%	0.9	0.72	-0.3	13	8.7	3.7
O=C(CCCN1C(=O)/C(=C\c2ccccc2)SC1=S)Nc1ccc(C(=O)O)cc1	x	-3.5	0.62	7.8	1	1.7	10
COc1ccc(S(=O)(=O)N2CCN(C(=S)NCC3CCCO3)CC2)cc1OC (stereo unspecified)	-1%	0.1	0.68	-0.3	-13	3.9	5.5
c1ccc(-c2cn3nc4c(nc3n2)CCCC4)cc1	u	-8.0	0.79	-27	-11	5.8	i
CCN1CCN(C(c2ccc(OC)cc2)c2nnnn2Cc2ccc3c(c2)OCO3)CC1 (stereo unspecified)	u	-0.3	0.63	0.8	-3	0.2	0.4
Cc1ccc(-c2cc(-c3nnc(SCC(=O)NC(C)C(C)C)n3N)c3ccccc3n2)cc1 (stereo unspecified)	1%	x	0.66	-2.7	-4	x	-15
CNC(=O)c1nnsc1S(=O)(=O)c1ccc(Cl)cc1	-43%	x	0.54	0.3	49*	x	0.9
O=C(CN1C(=O)C2C3C=CC(C3)C2C1=O)N1CC=C(c2ccccc2)CC1 (stereo unspecified)	0%	-0.4	0.69	2.3	3	3.6	-1.1
COc1ccc(-c2csc3ncn(Cc4ccccc4)c(=O)c23)cc1	x	0.0	0.68	-2.9	11	2.8	-4.1
COc1ccccc1NS(=O)(=O)c1cccs1	50%	0.0	0.66	3.2	4	4.6	2.5
S=c1[nH]c(-c2ccccc2)cn1/N=C/c1ccccc1Br	-2%	0.5	x	4.6	-11	2.3	x
Cc1ccc(C)c(S(=O)(=O)N2CCN(CC(=O)Nc3ccc([N+](=O)[O-])cc3)CC2)c1	-2%	-0.9	0.73	5.0	3	-0.5	3.2
CCn1c(SCc2cccc(C(F)(F)F)c2)nnc1-c1ccco1	24%	-0.8	0.68	0.7	-10	-1.9	1.1
COCCn1c(SCC(=O)N2CCCCC2)nc2c(c1=O)SC(C)C2 (stereo unspecified)	x	0.8	0.71	2.7	-2	-5.8	7.6
Cc1ccc(C(=O)C(C)[n+]2cccc(C(N)=O)c2)cc1 (stereo unspecified)	21%	0.4	0.69	2.7	4	3.8	2.1
COc1ccc(-c2nnn(CC(=O)N(CC(=O)NC3CCCC3)Cc3cccs3)n2)cc1OC	13%	0.2	0.74	1.5	-2	8.4	5.3
C[C@@H]1CC[C@@]2(O[C@H](CCO)C[C@H](O)[C@H]2O)O1	-11%	0.0	x	-0.7	-2	-3.8	0.8
NC(=O)c1ccsc1NC(=O)COC(=O)Cc1ccccc1Cl	-8%	-0.2	0.68	2.8	-2	0.2	1.7
COc1ccccc1NC(=O)c1ccc2c(c1)C(=O)N(c1ccccc1OC)C2=O	x	-1.5	0.64	-3.1	1	3.6	1.6
N#Cc1c2n(c(=O)[nH]c1=O)CCCCC2	13%	-0.1	0.72	1.2	-3	5.1	2.5
Cc1ccc(CN(C(=O)COc2ccc([N+](=O)[O-])cc2)C2CCS(=O)(=O)C2)o1 (stereo unspecified)	x	1.3	0.69	-0.9	-6	-0.1	2.5
COc1ccc(Cl)cc1S(=O)(=O)Nc1ccc2c(c1)n(C)c(=O)n2C	x	-0.1	0.69	-0.6	2	-3.1	1.6
O=C(c1ccccc1)c1cccn1CC(=O)N1CCCCCC1	10%	0.7	0.67	-2.7	-8	2.1	6.7
Cc1cc(=O)[nH]c(Nc2cccc(F)c2)n1	-3%	0.3	0.62	1.6	8	1.4	0.0
CC(C)(C)c1ccc(C(=O)NNC(=O)CCc2ccccc2)cc1	x	-0.4	0.66	-1.8	-3	-5.2	3.0
COc1ccc(CN2C(=O)C(C)=C(C)C2OC)cc1 (stereo unspecified)	x	1.1	0.69	-1.6	8	8.5	3.0
O=C(CSc1ccc(Cl)cc1)NC1=NN(c2ccccc2)C(=O)C1	4%	-0.4	0.72	4.3	0	0.1	3.3
CCOc1ccc(N(C(C)C(=O)NCc2ccco2)S(C)(=O)=O)cc1 (stereo unspecified)	14%	-0.1	0.67	-2.7	8	1.9	2.0
Cc1ccc(OCC(=O)N2c3ccccc3NC(=O)C2(C)C)c([N+](=O)[O-])n1	2%	0.3	0.68	0.3	7	-5.1	5.0
Cc1ccc(C(=O)c2oc3nc(C)cc(C)c3c2N)cc1	-3%	-0.1	0.71	0.4	-7	-3.9	-42
Cc1nnc(NC(=O)CSc2nnc(CC(=O)Nc3ccccc3C)n2C)s1	8%	-0.6	0.61	1.3	9	-2.4	0.4
CCN(CC)CCN1C(=O)C(=O)/C(=C(/O)c2c(C)[nH]c(C(=O)OC)c2C)C1c1cccnc1 (stereo unspecified)	3%	0.3	0.72	-4.0	-4	-0.1&3.2	9.3
CN(CCC(=O)Nc1ccc(Cl)cc1)Cc1ccccc1	-5%	0.3	0.68	0.7	-2	3.7	0.0
CCOC(=O)CSc1nc2ccccc2c(=O)n1-c1ccc(C)cn1	x	-0.1	0.67	2.3	1	-2.7	5.8
CC1(C)CC(=O)NC=C(c2ccccc2)C1	6%	0.2	0.77	-3.0	-8	4.6	-1.7
CCC(Nc1nc(-c2ccccc2)nc2ccccc12)C(=O)O (stereo unspecified)	71%	0.0	0.66	1.2	3	-11	4.8
Cc1nn(-c2ccccc2)c(C)c1NC(=O)COc1ccc([N+](=O)[O-])cc1	6%	-0.1	0.64	-3.0	2	0.7	1.4
O=C(/C=C/c1ccccc1)NCC(=O)N/N=C/c1ccccc1[N+](=O)[O-]	23%	0.1	x	-0.3	1	4.3	x
CC(C)C(=O)N1CCC2(CC1)Oc1ccc(Cl)cc1C(=O)C21CC(c2ccc(Cl)cc2)=NO1 (stereo unspecified)	5%	0.8	0.72	-3.2	16	0.7	-0.4

One compound at a time, as listed above.
Listed for Cc1nnc(NC(=O)CSc2nnc(CC(=O)Nc3ccccc3C)n2C)s1 → Vif A3G: 8%; Bfl-1 A1 inh: -0.6; Ecoli growth: 0.61; HNF4A DNA FP: 1.3; B2AR ag: 9; LANA-H2B inh: -2.4; UCH37 DUB inh: 0.4
Listed for CCOC(=O)CSc1nc2ccccc2c(=O)n1-c1ccc(C)cn1 → Vif A3G: x; Bfl-1 A1 inh: -0.1; Ecoli growth: 0.67; HNF4A DNA FP: 2.3; B2AR ag: 1; LANA-H2B inh: -2.7; UCH37 DUB inh: 5.8

Continued.
SMILES	Vif A3G	Bfl-1 A1 inh	Ecoli growth	HNF4A DNA FP	B2AR ag	LANA-H2B inh	UCH37 DUB inh
COc1cccc(C(=O)CN2C(=O)C(C)(C)Oc3ccc(C(=O)N4CCCCCC4)cc32)c1	0%	-0.1	0.68	1.4	12	2.2	2.5
Cc1cc(NC(=O)c2cccc(Oc3ccccc3)c2)n[nH]1	4%	2.5	0.67	-2.6	-17	-1.0	0.0
CCc1ccc(OC)c(S(=O)(=O)NCc2cccs2)c1	-6%	-1.1	0.68	0.7	1	-0.7	1.1
O=C(/C=C/c1cccs1)NCc1ccc2c(c1)OCO2	x	0.1	0.61	1.0	-1	3.4	2.5
Cc1ccc(C(=O)NCCCN2CCOCC2)cc1S(=O)(=O)N1CCOCC1	-5%	-0.8	0.66	-0.7	0	-7.2	4.0
O=C(O)C1CCCN1c1nc(C(F)(F)F)nc2ccccc12 (stereo unspecified)	u	0.2	0.61	0.1	-1	1.6	2.2
COc1ccc(OC)c(-n2c(-c3ccccc3)n[nH]c2=S)c1	3%	0.3	0.69	5.2	-3	-2.6	-0.5
O=C(CCNS(=O)(=O)c1cccc2nsnc12)N1CCN(c2ccccn2)CC1	25%	1.4	0.7	1.0	13	0.9	4.1
Cc1ccccc1NC(=S)Nc1ccc2[nH]c(=O)[nH]c2c1	x	0.4	0.71	0.0	-1	-5.0	2.0
CCN1CCN(C(=O)CS(=O)Cc2nc(-c3ccc(OC)cc3)oc2C)CC1 (stereo unspecified)	-5%	-0.8	0.66	3.1	-4	4.7	1.8
COc1ccccc1C(c1nnnn1C(C)(C)C)N1CCN(Cc2ccncc2)CC1 (stereo unspecified)	17%	-0.3	0.77	-0.1	4	0.8	1.0
COc1ccc(S(=O)(=O)Cc2ccc(C(=O)NCc3cccs3)o2)cc1	-2%	0.2	x	2.4	4	1.8	x
O=C(NC1CCN(C(=S)Nc2ccccc2)CC1)C1CCCCC1	x	0.1	0.69	5.2	4	4.5	0.6
O=C(Nc1ccc(Br)cc1)C1CCCN(C2=NS(=O)(=O)c3ccccc32)C1 (stereo unspecified)	4%	-1.3	0.65	-3.3	1	2.5	1.4
COc1ccc2[nH]c3c(c2c1)CCN1C(=O)C(CC(=O)NCCN2CCOCC2)C[C@H](C(=O)N2CCCCC2)[C@@]31C (stereo partly specified)	0%	x	0.71	-2.0	-1	x	-1.4
Cc1cc(C)nc(NC(=O)Cc2ccc(Br)cc2)n1	x	0.8	0.71	-0.1	-10	-2.4	1.7
CCn1c(SCC(=O)NCc2cccs2)nnc1-c1ccco1	17%	-0.7	0.73	5.4	-8	-0.5	0.1
NC(=O)c1ccc(-c2ncc(-c3ccccc3)o2)cc1	-1%	-11	0.64	-0.1	-3	2.0	i
COc1ccccc1OCC(=O)NCc1cccs1	11%	-0.4	0.65	1.3	0	-4.5	1.1
CCCCc1nc(SCC(=O)Nc2ncccn2)n[nH]1	-4%	0.9	0.73	-3.3	2	0.4	-0.1
CN1CN=C(NS(=O)(=O)c2ccc([N+](=O)[O-])cc2)NC1	x	2.0	0.71	1.2	9	-0.7	4.8
COc1ccc(C(=O)N(C)Cc2ccccc2)cc1Br	11%	-1.7	0.72	x	x	-9.4	3.4

Screening data: PubChem, several laboratories
